A1 inh – caspase 3/7 activation in MEF A1-2A-BIM cells, primary screen, A1 inhibitor project, cell-based, luminescence, HTS; Caspase-Glo 3/7 luminescence, 3 h; percent of clofoctol response, vehicle zero; caspase activation, % (concentration not given with the values); 330,000 tested, 0.066% active; AID 2462, 2010;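 active = over half of replicate activation scores above 10%, or exactly half above 10 with the replicate mean above 10; inconclusive = replicate mean below 10 yet half the replicates above 10; inactive = over half of replicates below 10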;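 also: wells of about 30 µL received 50 nL stock; many hits fall short of the cut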
Calb FLC – C. albicans growth inhibition with fluconazole, primary screen, CaCi-2 strain, Alamar Blue fluorescence | 300,000 tested, 0.57% active | AID 1979, 2009 | C. albicans CaCi-2 (fluconazole-resistant clinical isolate) + fluconazole, 48 h | growth inhibition, % (no concentration beside the values);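 active = most replicates above 75%; inconclusive = exactly half above 75%; inactive = most below 75%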;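 also: all wells also contain fluconazole at 8 µg/ml as a sub-toxic cotreatment; 0% = median of DMSO wells and 100% = median of geldanamycin control wells; wells of about 8 µL received 7.5 nL stock; the first replicate is given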
Beta cell apopt – inhibitors of cytokine-induced beta cell apoptosis, primary screen, luminescence. INS-1E cytokine-induced death, ATP luminescence, 48 h; percent of positive-control rescue, neutral wells zero. protection from apoptosis, % (concentration not given with the values). 300,000 tested, 0.8% active;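 active = all replicates at 75% or more, or half of them and the mean; inconclusive = half reach 75% but not the mean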;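 also: 0% = cytokine-treated negative control wells and 100% = positive control rescue; higher means more ATP so stronger rescue from cytokine killing; wells of about 40 µL received 100 nL stock; the first replicate is given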
Ecoli rRNA inh – reduced GFP signal of wild-type E. coli, primary screen, bacterial rRNA inhibitor project, GFP/RFP fluorescence, OD600, single point; E. coli WT GFP vs humanized-ribosome RFP mutants, 24 h; hits give low values; DMSO median 0, no signal -100; GFP signal change (wild-type ribosome), % (test concentration not listed); 350,000 tested, 1.6% active; AID 720706, 2013;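 active = significant combined selectivity score with lowered wild-type GFP, culture density cut under 30%, mutant RFP and density less affected; inactive = any of these conditions unmet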; also: one replicate is shown; some compounds called inactive have numbers as strong as hits
T cruzi repl – inhibitors of intracellular T. cruzi growth, primary screen, luminescence, NIH3T3 host cells; T. cruzi beta-gal in NIH3T3, 90 h; 300,000 tested, 1.4% active; AID 1885, 2009; inhibition, % (test concentration not listed);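 active = mean inhibition across valid replicates above about 55%, limit read from the data; inconclusive = mean below that limit but half or more replicates reach it; inactive = mean below it, under half of replicates reach it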;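 also: signal also drops with host cell toxicity which is not excluded here; 0% = plate median of DMSO wells and 100% = zero luminescence signal; higher percent means less beta-gal luminescence so fewer parasites; stock transfer was 50 nL into about 50 µL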
RanGTP-Imp inh – inhibitors of RanGTP-importin-beta interaction, primary screen, biochemical, FRET, CFP-Ran, YFP-importin-beta, homogeneous. Ran GTPase (GTP-bound) - importin-beta complex. cell-free CFP-Ran/YFP-importin-beta FRET ratio. inhibition, % (test concentration not listed). 300,000 tested, 1.1% active;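 active = most replicates above 15%; inconclusive = exactly half above 15%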;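 also: 0% = DMSO wells and 100% = Ran loaded with GDP instead of GTP; wells of about 40 µL received 100 nL stock; the first replicate is given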
Vif A3G – inhibitors of Vif binding to APOBEC3G peptide, primary screen, biochemical, TR-FRET, GST-Vif 1-94, biotin-A3G peptide, dose response retest (AID 1117319); Virion infectivity factor (Human immunodeficiency virus type 1 group M subtype B (isolate …; TR-FRET GST-Vif / biotin-A3G peptide binding; higher % means a stronger effect; test concentration not given here; strong numbers were not always called active; inhibition, %, or IC50 in µM where a hit was titrated; 260,000 tested, 0.57% active;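 active = above the screen mean plus three standard deviations and confirmed in dose response; inconclusive = results disagree or hit not tested in dose response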;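 also: Vif residues 1-94 fused to GST binding biotinylated APOBEC3G peptide 110-148; 0% = full assay without inhibitor and 100% = GST in place of GST-Vif; retest series ran down from 100 µM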
MLL AF4-AF9 inh – inhibitors of AF4 peptide binding to AF9, primary screen, biochemical, AlphaScreen, biotin-AF4 peptide, FLAG-AF9, single point; Protein AF-9 (Homo sapiens), P42568; inhibition, % at 10 µM; 350,000 tested, 0.47% active;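 active = every replicate reaching a set inhibition limit, whatever the replicate mean, cut at about 25% in these data; inconclusive = mean inhibition reaches that limit but some replicates miss it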;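 also: 0% = plate neutral control median and 100% = total signal loss; the record names both 10 and 1 µM as test concentration; the first replicate is given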
Target sequence (P42568 whole entry, looked up): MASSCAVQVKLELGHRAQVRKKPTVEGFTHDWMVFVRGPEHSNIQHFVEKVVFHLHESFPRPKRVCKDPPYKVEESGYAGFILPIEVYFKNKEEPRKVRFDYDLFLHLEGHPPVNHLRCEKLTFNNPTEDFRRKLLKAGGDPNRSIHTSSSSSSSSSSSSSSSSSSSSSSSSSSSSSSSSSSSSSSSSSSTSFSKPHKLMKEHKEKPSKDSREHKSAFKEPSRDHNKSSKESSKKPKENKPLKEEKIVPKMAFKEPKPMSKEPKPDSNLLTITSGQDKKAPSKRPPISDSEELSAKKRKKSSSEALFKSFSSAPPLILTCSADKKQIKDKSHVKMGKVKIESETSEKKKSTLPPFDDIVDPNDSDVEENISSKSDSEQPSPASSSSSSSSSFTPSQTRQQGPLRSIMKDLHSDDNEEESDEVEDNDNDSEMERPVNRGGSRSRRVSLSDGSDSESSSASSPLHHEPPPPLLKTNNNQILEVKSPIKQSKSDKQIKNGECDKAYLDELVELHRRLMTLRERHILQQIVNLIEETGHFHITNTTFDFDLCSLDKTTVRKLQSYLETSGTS
Ecoli rRNA inh OD600 – recorded beside Ecoli rRNA inh, whose call it bears; OD600 change, %; measured here: OD600 growth;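 optical density of the mix in the first replicate; 0 = DMSO median and -100 = no signal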
Ecoli rRNA inh RFP – recorded beside Ecoli rRNA inh, whose call it bears; RFP signal change, %; measured here: RFP humanized mutant strains;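 first replicate; 0 = DMSO median and -100 = no signal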
* marks the source's active call; other numbers are inactive results; u = inconclusive; x = not tested or not shown. Some of the compounds tested (hit frequency here may not be typical).

Order of values: A1 inh	Calb FLC	Beta cell apopt	Ecoli rRNA inh	Ecoli rRNA inh OD600	Ecoli rRNA inh RFP	T cruzi repl	RanGTP-Imp inh	Vif A3G	MLL AF4-AF9 inh
> COc1ccc(C(=O)N2CCCC(CCC(=O)NCc3ccc(F)c(F)c3)C2)o1 (centres undefined)
  -1.6	-4	-2	2	1	-1.1	17	0.8	10%	-6.3
> C/C(=N/NC(=O)c1ccccc1O)c1ccc(N2C(=O)C3CCCCC3C2=O)cc1 (centres undefined)
  -0.2	111*	-2	x	x	x	4	2.8	-4%	x
> CC1CCN(C(=O)COc2cccc3c2CCN(C)C3=O)CC1
  0.2	5	-3	0	-2	-3.2	7	1.7	9%	-2.1
> CN1CCc2nc3ccc(Cl)cc3c(-c3ccccc3Cl)c2C1
  0.5	15	1	x	x	x	40	-2.1	64%	x
> CC(C)=NOc1nc(NC(=O)NS(=O)(=O)c2ccccc2Cl)nc(N(C)C)n1
  0.7	-7	x	9	6	0.8	-6	7.0	x	-2.3
> Cc1nn(CC(=O)N(C)Cc2ccc(F)cc2)c(C)c1[N+](=O)[O-]
  0.7	-1	-6	x	x	x	-11	9.5	x	x
> COC(=O)C1=CN(CC2CCCO2)C=C(C(=O)OC)C1c1ccccc1C(F)(F)F (centres undefined)
  -0.7	x	-14	x	x	x	0	62*	71%	x
> COc1ccc(CC(=O)Nc2ncc([N+](=O)[O-])s2)cc1OC
  0.3	u	-3	-50*	-22*	-10*	63*	-0.8	8%	-7.2
> O=S(=O)(c1ccc(N2CCOCC2)c(Cl)c1)N1CCOCC1
  0.8	0	-2	1	-2	-2.5	-12	-0.4	x	1.8
> O=C(NCc1cccnc1)C1CCCN(S(=O)(=O)c2ccc(Cl)cc2)C1 (centres undefined)
  1.4	-1	x	x	x	x	10	-1.6	10%	x
> C/C=C/C(=O)OCC(=O)Nc1cccc(F)c1
  0.2	-7	x	6	5	-0.6	0	-2.0	-3%	0.1
> Cc1cccc(/C=N/Nc2nncc3ccccc23)c1
  -9.6	-1	3	6	18	-4.4	-12	-0.5	12%	3.1
> CN(CC(=O)Nc1ccc(F)cc1)C(=O)c1cc([N+](=O)[O-])ccc1N1CCOCC1
  0.6	1	0	-4	9	-1.8	-7	1.1	7%	12
> O=S(=O)(NCc1ccco1)c1cnc(Cl)c(Br)c1
  0.1	3	0	5	-2	-0.7	-5	-2.1	7%	4.8
> O=[N+]([O-])c1cc(C(F)(F)F)ccc1NC1CCN(Cc2ccccc2)CC1
  -0.1	9	x	-36	-65	1.4	37	0.5	-7%	16
> O=C(Nc1ccon1)c1ccc(Br)o1
  -0.8	-5	2	13	7	-3.3	2	-5.1	-2%	5.6
> NS(=O)(=O)c1cccc(NC(=O)CCS(=O)(=O)c2ccc(Cl)cc2)c1
  2.2	4	-5	3	5	-2.0	1	-0.1	9%	-1.7
> COc1ccc(NC(=O)C2CCCN(S(=O)(=O)c3ccc4[nH]c(=O)ccc4c3)C2)cc1 (centres undefined)
  -0.9	10	0	9	9	1.4	-11	1.3	1%	-6.5
> Nc1ccc(N2CCN(c3ccc(Cl)c(Cl)c3)CC2)cc1
  0.4	-3	11	x	x	x	-22	0.1	22%	27*
> O=CN1CCCN(Cc2nc(-c3cccc(Cl)c3)no2)CC1
  0.2	-4	3	10	12	1.5	-7	-0.9	x	-0.6
> CCCCc1ccc(-c2csc(/C(C#N)=C\c3ccc(C)o3)n2)cc1
  3.8	15	4	11	3	20	10	3.8	u	4.0
> Cc1cc(C)cc(N(C(=O)c2cccs2)C2C=CS(=O)(=O)C2)c1 (centres undefined)
  0.0	26	-7	5	-1	-1.5	-10	1.2	4%	2.3
> COc1cc(NC(=S)NCCCN2CCOCC2)cc(OC)c1
  0.0	-1	-5	x	x	x	-12	3.7	7%	x
> O=C(CN1C(=O)/C(=C/c2cccc(Br)c2)SC1=S)NCCCN1CCOCC1
  -0.2	4	-4	-8	-3	19	4	-5.0	x	1.7
> Cc1ccc(C(=O)NCCn2cc(SCC(=O)Nc3cc(C)on3)c3ccccc32)cc1
  0.0	3	0	-12	-24	0.4	-5	-4.2	-1%	-2.1
> COc1cccc(CN(C(=O)/C=C/c2ccco2)C2CCS(=O)(=O)C2)c1 (centres undefined)
  -1.6	-9	-3	0	0	-2.6	-6	-3.5	6%	-1.5
> Cc1ccccc1/C=C/C(=O)N1CCOCC1
  -5.3	-19	2	7	-3	1.6	-1	x	-8%	0.3
> NS(=O)(=O)c1cccc(NC(=O)CCSc2ccccc2Cl)c1
  0.4	-2	1	-43	-69	-8.1	0	-2.2	x	3.1
> CN(CC(=O)Nc1cccc(F)c1)C(=O)CCCNC(=O)c1ccc(Cl)cc1
  0.3	-4	2	-10	-5	2.4	-4	-1.1	3%	2.3
> COc1ccc(C)cc1S(=O)(=O)N1CCCC(C(=O)N2CCOCC2)C1 (centres undefined)
  -0.1	-5	-1	26	17	2.0	-20	1.8	x	-1.3
> CCCN(/C=N/c1sc2c(c1C#N)CCCCC2)CCC
  0.4	-26	-7	x	x	x	27	1.9	0%	x
> CCCn1c(SCC(=O)N2CCCc3ccccc32)nnc1-c1ccco1
  0.2	-6	-2	x	x	x	5	2.4	-6%	x
> O=C(Nc1ccc2c(c1)C(=O)NC2=O)c1ccccc1
  -2.7	-4	-6	1	-1	0.6	4	3.1	x	-18
> O=C(Nc1ccc2oc(-c3ccccc3F)nc2c1)c1ccccc1F
  -1.7	-1	5	-22	-16	-11	-4	-0.5	x	-4.8
> Cc1c(CNC(=O)c2cnn3c2NC(c2ccccc2)CC3C(F)(F)F)cnn1C (centres undefined)
  0.1	-39	-4	1	4	0.6	-6	-0.6	-4%	3.4
> CCOc1ccccc1NS(=O)(=O)c1cc2c3c(c1)C(C)C(=O)N3CCC2 (centres undefined)
  -0.5	-2	-3	6	15	3.0	12	3.1	0%	-1.2
> CN(C)c1ccc(CNC2C3CC4CC(C3)CC2C4)cc1 (centres undefined)
  0.3	-42	-2	x	x	x	3	6.2	5%	x
> C=Cc1ncc(OC)c2c1[nH]c1ccccc12
  -0.2	-10	50	x	x	x	41	u	x	x
> COc1cc(/C=C/c2ccc3cccc(OC)c3n2)c(OC(C)=O)c([N+](=O)[O-])c1
  -0.6	6	20	x	x	x	17	-2.4	22%	x
> CC(C)n1nccc1NC(=O)Nc1ccccc1
  -0.1	2	1	10	14	2.5	0	3.6	-11%	1.1
> O=C(COC(=O)c1cccnc1Cl)Nc1ncc(Cl)cc1Cl
  0.5	-7	-1	-12	-13	-2.2	-7	0.9	2%	-0.7
> CCn1cc(C(=O)NCCCOC)c(=O)c2cc(S(=O)(=O)N(C)C)ccc21
  -0.1	-2	-7	-1	3	1.4	9	-1.4	2%	-2.3
> Cc1nc(Nc2cccc(C(C)O)c2)c2nnn(Cc3ccc(F)cc3)c2n1 (centres undefined)
  0.3	7	0	-4	0	-6.0	14	4.2	-15%	-2.2
> COc1ccc(S(=O)(=O)Nc2ccccn2)cc1C
  0.1	-8	x	9	11	0.5	-9	5.1	x	0.0
> O=C(N/N=C/c1ccc(Cl)cc1)C1CC12CCC2 (centres undefined)
  0.1	-5	0	x	x	x	15	-9.0	1%	11
> COc1ccc(CN(C)CC(=O)Nc2cccc(S(N)(=O)=O)c2)c(OC)c1OC
  0.4	-10	3	8	3	-3.8	1	0.1	-6%	1.7
> CCOC(=O)C(CCCCOc1ccc([N+](=O)[O-])cc1)C(=O)OCC
  1.3	-8	-11	2	13	-7.8	-16	1.1	-2%	-23
> O=C(Cc1ccccc1)NCc1ccc2c(c1)OCO2
  0.3	-26	-7	x	x	x	0	2.1	4%	x
> CC1Cc2nc(SCC(N)=O)n(C)c(=O)c2S1 (centres undefined)
  -0.1	-6	-1	1	7	-1.9	-4	-1.5	-1%	-3.7
> CC1CCN(c2[nH]c(=S)c(C#N)c3c2CCCC3)CC1
  0.8	0	-2	9	13	0.1	7	5.2	u	x
> CCOC(=O)Cc1csc(NC(=O)c2cccs2)n1
  -4.3	-3	2	x	x	x	-13	3.0	u	x
> Cc1cccc(CN2CCN(c3nc4nonc4nc3NC3CC3)CC2)c1
  0.0	-3	7	9	-7	2.6	10	2.5	-2%	2.8
> Cc1cc(C(=O)N/N=C/c2cccnc2)c(C)o1
  0.0	5	1	x	x	x	15	-0.1	1%	x
> NC(=O)CC(NC(=O)Cc1ccc(Br)cc1)c1ccc(NCCN2CCCCC2)c([N+](=O)[O-])c1 (centres undefined)
  1.1	-1	-5	11	1	1.0	-19	-1.7	x	3.4
> Cc1cc(=O)[nH]c(SCC(=O)NCCc2ccccc2)n1
  -0.7	13	0	x	x	x	-16	0.3	-2%	x
> CC(C)(C)c1[nH]nc2c1C(C1C=CCCC1)C(C#N)=C(N)O2 (centres undefined)
  0.5	1	1	x	x	x	-18	1.0	6%	x
> Cc1ccccc1OCC(=O)NN1Cc2ccccc2C1=N
  0.0	-3	-6	x	x	x	-11	-2.7	68%	x
> COc1ccc(C(=O)O/N=C(\C)c2cnccn2)cc1
  -1.9	-7	1	-1	-3	1.5	6	0.8	x	-1.1
> CC(=O)N1CCN(c2ccc(NC(=O)C(C)Oc3ccc(Cl)cc3Cl)cc2)CC1 (centres undefined)
  0.8	-1	1	-12	-13	-2.0	2	-2.4	10%	x
> Cc1csc(NC(=O)c2ccc(C)o2)n1
  -2.9	15	-1	7	4	-3.0	-3	5.5	-4%	0.6

(further entries)
Order of values: A1 inh	Calb FLC	Beta cell apopt	Ecoli rRNA inh	Ecoli rRNA inh OD600	Ecoli rRNA inh RFP	T cruzi repl	RanGTP-Imp inh	Vif A3G	MLL AF4-AF9 inh
> COc1ccc(C(=O)N[C@H](C(=O)NCc2ccccc2)C(C)C)cc1
  0.6	-3	-8	0	1	-4.1	3	1.0	x	0.9
> C(=C/c1ccnc2nc(SC/C=C/c3ccccc3)nn12)/c1ccccc1
  0.1	-1	11	x	x	x	40	0.0	-3%	x
> COCCN(CCOC)C(=O)COC(=O)c1ccc(Cl)c(S(=O)(=O)N(C)c2ccccc2)c1
  0.2	0	-1	-2	-5	1.2	-23	5.2	u	-2.3
> C=CCn1c(Oc2ccccc2)nc2c1c(=O)n(C)c(=O)n2C
  -0.3	0	-9	13	3	-2.8	-2	u	3%	0.2
